VCAM-1 rise – enhancers of VCAM-1 display on endothelial cells, cell-based, plate reader, pooled HUVEC, TNFa stimulus (AID 455); HUVEC TNFa-induced VCAM-1 immunofluorescence, plate reader; numbers were filed only for top-ranked candidate wells; augmentation, % at 5 µM; hit rate 0.2% among 10,000;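 active = a compound raising TNF-alpha-driven VCAM-1 surface staining, with its hit status upheld on visual or statistical review; inactive = the rest, including hits rejected on review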;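 also: 0% = TNFa with vehicle and 100% = strongest image-checked hit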
26S disassembly – blocks ATP-dependent breakdown of the yeast 26S proteasome; AID 751; inhibition of disassembly, % (no concentration beside the values); anti-FLAG beads, GFP-proteasome disassembly, flow cytometry; hit rate 0.2% among 24,000;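 active = above 40%; inconclusive = likely self-fluorescent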;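 also: plate controls were ATP control with full disassembly for no effect and ATP-gamma-S intact proteasomes for full effect; higher percent means more bead fluorescence retained so stronger block of disassembly; stock transfer was 100 nL into about 10 µL; wells with too few beads may also be inconclusive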
Active calls of the source: *; i = inactive; ? = inconclusive; . = not tested or not shown.

#	VCAM-1 rise	26S disassembly	SMILES
1	i	5.7	CCOc1ccc(N(CC(=O)NCc2cccc(OC)c2)S(=O)(=O)c2c(C)noc2C)cc1
2	i	-0.2	Nc1nc(CSCc2ccccc2)nc(N2CCOCC2)n1
3	.	3.0	O=C(NCCN1CCN(c2ccccc2)CC1)c1cccn2c(=O)c3ccccc3nc12
4	i	4.3	COCCCn1c(SCC(=O)N2CCc3ccccc32)nnc1-c1ccoc1C
5	.	-2.5	CCOc1ccc(C(CC(=O)O)NS(=O)(=O)c2ccc(C)cc2)cc1OC (stereo unspecified)
6	.	-0.4	O=C(O)c1ccc(CS(=O)(=O)c2cccc(C(F)(F)F)c2)o1
7	.	0.3	O=c1c2ccccc2nc2ccc(NCc3ccco3)nn12
8	.	9.2	O=C(CN1CCN(S(=O)(=O)c2ccc(Br)cc2)CC1)Nc1ccc2c(c1)OCCO2
9	.	0.2	NC(=O)NC1CCCc2c1[nH]c1ccc(Cl)cc21 (stereo unspecified)
10	i	-2.9	Cn1c(-n2c(-c3ccco3)nc3ccccc3c2=O)nc2ccccc21
11	.	-4.7	O=C1c2oc3ccccc3c(=O)c2C(c2cccc(O)c2)N1CCCN1CCOCC1 (stereo unspecified)
12	i	-0.7	COc1ccc(C(=O)NCc2nc3ccccc3[nH]2)cc1OC
13	.	-1.4	O=C(Cn1cc2c(n1)CCCC2)N1CCc2ccccc21
14	i	0.5	C=CCn1c(=O)c(C(=O)Nc2ccccc2C(=O)OCC)c(O)c2ccccc21
15	i	3.0	NC(=O)c1sc2nc3c(c(-c4ccco4)c2c1N)CCC3
16	.	-1.6	O=C(CCN1C(=O)C2C3C=CC(C3)C2C1=O)N1CCN(c2ccc(F)cc2)CC1 (stereo unspecified)
17	i	?	C/C(=C\c1ccco1)C1C(C#N)=C(N)OC2=C1C(=O)CC(C)(C)C2 (stereo unspecified)
18	.	-0.4	COc1ccccc1N1CCN(C(=O)CCNS(=O)(=O)c2ccc(Br)s2)CC1
19	.	0.7	COc1ccc(CNC(=O)C2CCCN(S(=O)(=O)c3c(C)nn(C)c3C)C2)cc1 (stereo unspecified)
20	.	-4.3	O=C(CCc1nc(-c2ccccc2F)no1)NC1CCN(Cc2ccccc2)CC1

#	VCAM-1 rise	26S disassembly	SMILES
21	i	0.6	Cc1cn2c(-c3ccncc3)nnc2s1
22	.	0.5	CCOCCCNC(=O)C(NC(=O)c1cnccn1)c1ccc(OC)cc1 (stereo unspecified)
23	i	1.0	Cc1ccc(CC2SC(=O)NC2=O)cc1Cl (stereo unspecified)
24	.	1.2	c1cncc(-c2nc3ccccn3c2Nc2ccc3c(c2)OCCO3)c1
25	.	2.7	COc1ccc(N2CCN(CCCNS(=O)(=O)c3ccc4c(c3)oc(=O)n4C)CC2)cc1
26	i	-0.3	COc1ccc(S(=O)(=O)N(CC(=O)N2CCN(c3ccccc3OC)CC2)c2ccccc2)cc1
27	.	-1.0	O=C(CCCCn1c(=O)c2ccccc2n(CC(=O)NC2CCCC2)c1=O)NCc1ccco1
28	i	-1.7	CCOC(=O)C1CCCN(C(=O)c2cc3c(-c4cccc(OC)c4)nn(C)c3s2)C1 (stereo unspecified)
29	i	2.1	CCN(CC)S(=O)(=O)c1ccc(F)cc1
30	i	1.1	CCc1nc(N)nc(N)c1-c1ccc(Cl)cc1
31	.	?	O=C(C1CCCN(S(=O)(=O)c2cccc3nsnc23)C1)N1CCN(c2ccccn2)CC1 (stereo unspecified)
32	.	-0.8	CCc1ccc(C2CC(c3ccccc3)Nc3nc(N)nn32)cc1 (stereo unspecified)
33	i	-1.7	CC(C)c1ccc(S(=O)(=O)N2CCN(CCC(=O)Nc3ccc(N(C)C)cc3)CC2)cc1
34	i	-5.4	O=C(O)c1ccc(COc2c(F)c(F)c(F)c(F)c2F)o1
35	i	-1.5	Cc1ccc(-c2nnc3c4ccccc4c(C)nn23)cc1S(=O)(=O)N1CCN(C)CC1
36	i	0.1	COc1ccc(-c2nnc(SC(C)C(=O)Nc3nccs3)n2-c2ccccc2)cc1OC (stereo unspecified)
37	i	-2.1	CC(OC(=O)CNC(=O)C12CC3CC(CC(C3)C1)C2)C(=O)Nc1ccc(N2CCOCC2)cc1 (stereo unspecified)
38	.	0.5	CCN(CCCNC(=O)CCNC(=O)Cn1cnc2ccccc2c1=O)c1cccc(C)c1
39	i	-3.4	Cc1nn(-c2ccc(F)cc2)c2sc(C(=O)OCC(=O)N3CCC(C)CC3)cc12
40	i	-0.3	CC(=O)Nc1ccc(Cl)cc1C(=O)O

#	VCAM-1 rise	26S disassembly	SMILES
41	.	-0.2	Nc1nc(Cn2nnc(-c3ccccc3Cl)n2)nc(N2CCOCC2)n1
42	.	0.4	CCOCCCNC(=O)C(NC(=O)c1ccc2c(c1)OCO2)c1ccc(OC)cc1 (stereo unspecified)
43	.	-0.9	CCOC(=O)C1CCCN(C(=O)c2ccc(CNc3c(N4CCC(C)CC4)c(=O)c3=O)cc2)C1 (stereo unspecified)
44	i	0.0	COC(=O)c1sc(NC(=O)COc2ccccc2OC)nc1C
45	.	0.7	CC(C)(C)n1ncc2c(=O)n(CC(=O)Nc3ccc4c(c3)OCO4)cnc21
46	i	-0.7	COc1cc(-c2nc(-c3cccc(C(F)(F)F)c3)no2)cc(OC)c1OC
47	.	-1.2	COc1ccc(Cn2nnc(C(=O)Nc3ccc(F)cc3)c2N)cc1
48	.	12.9	Cn1c(C(=O)N2CCc3ccccc3C2)cc2oc3ccccc3c21
49	i	0.5	Cc1ccc(C)c(OCCCC(C)(C)C(=O)O)c1
50	.	0.0	Cc1nc2c(C(=O)NCc3ccc(F)cc3)c[nH]n2c(=O)c1Cl
51	.	-2.5	O=c1[nH]n(-c2cccc3cccnc23)c(=O)c2ccccc12
52	i	0.0	CCN(CC)CCNC(=O)c1cc(S(C)(=O)=O)ccc1OC
53	.	0.0	CC(C)(C)n1nc2c(c1NC(=O)c1ccc(S(=O)(=O)N3CCCCC3)cc1)CS(=O)C2 (stereo unspecified)
54	i	1.6	Cc1nc(-c2cnn(-c3ccccc3)c2)c2cc(C)oc2n1
55	i	-0.6	O=P(O)(O)c1ccccc1OCCOCCOc1ccccc1P(=O)(O)O
56	i	-0.3	Cc1cccc(-c2noc(CCC(=O)Nc3ccccc3)n2)c1
57	i	0.3	O=C(CN1C(=O)c2ccccc2C1=O)Nc1ccc(S(=O)(=O)NCC2CCCO2)cc1 (stereo unspecified)
58	i	0.1	COc1ccc(OCC(=O)N2CCN(C(=O)c3cccs3)CC2)cc1
59	.	0.5	COC(=O)c1ccc(Cn2cnc3c(cnn3-c3ccc(F)cc3)c2=O)o1
60	.	0.9	O=C(O)CCC(=O)N1CCc2cc(S(=O)(=O)N3CCCCC3)ccc21

#	VCAM-1 rise	26S disassembly	SMILES
61	i	0.6	O=C(Cn1nnc(-c2ccc(CN3CCOCC3)cc2)n1)NC1CCCCC1
62	.	-2.4	COc1ccc(N(C)S(=O)(=O)c2c(C)[nH]c(=O)[nH]c2=O)c(OC)c1
63	i	0.7	CCC(C)c1ccc(NC(=O)C2CC2)cc1 (stereo unspecified)
64	.	-1.4	CCN(CC)CCNC(=O)C1CCC(=O)N1CCc1ccccc1 (stereo unspecified)
65	i	0.2	CCCCSc1nc2c(cnn2-c2ccc(F)cc2)c(=O)[nH]1
66	.	-0.5	CC1CCN(C(=O)c2ccccc2NC(=O)c2cccc(S(=O)(=O)N3CCOCC3)c2)CC1
67	.	-0.4	O=C(NCCc1ccc(Cl)cc1)C1CCN(S(=O)(=O)N2CCCC2)CC1
68	i	10.6	Cc1cc(=O)oc2c1c(C)nn2-c1ccc(C(=O)OC(C)C)cc1
69	i	-0.9	O=C(Nc1ccccc1C(=O)N1CCOCC1)C1CCC(=O)N1C1CCCC1 (stereo unspecified)
70	.	-0.1	Cc1ccc(C2C3=C(CCCC3=O)Nc3nc(SCC(=O)NCc4ccco4)[nH]c(=O)c32)cc1 (stereo unspecified)
71	.	-1.4	CCOC(=O)N1CCC(NC(=O)c2cc(C(=O)Nc3ccc(OC)c(OC)c3)ccc2CO)CC1
72	.	5.4	O=C(Nc1ccccc1C(F)(F)F)N1CCN(c2ccc3nnc(-c4ccc(F)cc4)n3n2)CC1
73	.	-4.4	CC(C)CCn1c(Cl)nc2c1c(=O)n(C)c(=O)n2C
74	.	1.4	CCCNC(=O)Cn1cnc2sc(C(=O)N3CCCC(C(=O)OCC)C3)c(C)c2c1=O (stereo unspecified)
75	i	-1.1	COc1ccc2c(c1)OC(O)(C(F)F)CC2=O (stereo unspecified)
76	59.3	12.8	Cc1ccc(C2C3CN(C(C)C)CC=C3C(C#N)=C(N)C2(C#N)C#N)cc1 (stereo unspecified)
77	.	-1.8	Cc1ccc(S(=O)(=O)NCCNC(=O)CN2CCCC2)cc1
78	.	1.8	CSc1sc(C)cc1C1C(C#N)=C(N)N(c2cccnc2)C2=C1C(=O)CCC2 (stereo unspecified)
79	.	1.2	O=C1Nc2ccccc2C(O)(C(=O)NCc2ccc3c(c2)OCO3)N1c1ccccc1 (stereo unspecified)
80	i	-2.6	COC(=O)CSc1nnc(CSc2nc(C)cc(C)n2)n1Cc1ccco1

Grouped by structure: those above containing an NH in an aromatic ring.
#	VCAM-1 rise	26S disassembly	SMILES
9	.	0.2	NC(=O)NC1CCCc2c1[nH]c1ccc(Cl)cc21 (stereo unspecified)
12	i	-0.7	COc1ccc(C(=O)NCc2nc3ccccc3[nH]2)cc1OC
50	.	0.0	Cc1nc2c(C(=O)NCc3ccc(F)cc3)c[nH]n2c(=O)c1Cl
51	.	-2.5	O=c1[nH]n(-c2cccc3cccnc23)c(=O)c2ccccc12
62	.	-2.4	COc1ccc(N(C)S(=O)(=O)c2c(C)[nH]c(=O)[nH]c2=O)c(OC)c1
65	i	0.2	CCCCSc1nc2c(cnn2-c2ccc(F)cc2)c(=O)[nH]1
70	.	-0.1	Cc1ccc(C2C3=C(CCCC3=O)Nc3nc(SCC(=O)NCc4ccco4)[nH]c(=O)c32)cc1 (stereo unspecified)

(further entries)
#	VCAM-1 rise	26S disassembly	SMILES
81	i	-0.5	CO/C([O-])=N/c1c[n+](-c2ccc(C)cc2)no1
82	i	0.3	COc1cccc(OCC(O)CN2CCN(CCO)CC2)c1 (stereo unspecified)
83	i	0.4	CCCC(=O)N1CC(=O)Nc2ccc(C)cc2C1c1ccc(F)cc1 (stereo unspecified)
84	.	0.3	CCn1cc(C(=O)NCc2ccccn2)c(=O)c2cc(S(=O)(=O)N3CCCCC3)ccc21
85	.	1.7	CS(=O)(=O)N1CCCC(C(=O)NCCCN2CCOCC2)C1 (stereo unspecified)
86	.	0.1	COc1ccc(Cc2nc(-c3ccc(-n4cccc4)cc3)no2)cc1
87	.	0.1	O=C(N1CCN=C1SCc1cccnc1)C12CC3CC(CC(C3)C1)C2
88	.	-1.7	COc1ccc(CCNC(=O)C2CCN(Cc3nc(-c4ccccc4C)oc3C)CC2)cc1OC
89	.	-0.1	COc1ccc(S(=O)(=O)CCC(=O)Nc2c(C)n(C)n(-c3ccccc3)c2=O)cc1
90	i	-2.1	CCOC(=O)Cc1nnc2c(Nc3ccc(C)cc3)nc3nonc3n12
91	.	-0.6	CCCCCCNC(=O)Cc1nc2nc(C)cc(C)n2n1
92	i	4.0	O=C(c1ccco1)N1CCN(CCCCN2C(=O)c3ccccc3C2=O)CC1
93	.	-0.8	CCOCCCNC(=O)CN1C(=O)CSc2ccccc21
94	i	-0.1	CC(C)(C)SCCNC(=O)CN1C(=O)c2ccccc2S1(=O)=O
95	.	-0.2	CCOC(=O)N1CCN(C(=O)CSc2nnc(CNC(=O)c3c(F)cccc3Cl)o2)CC1
96	i	-2.7	Cc1cc(NC(=O)COc2ncnc3sc(C)c(C)c23)no1
97	i	-0.7	CC(C(=O)N1CCCCC1)n1sc2ccccc2c1=O (stereo unspecified)
98	i	-3.6	CCc1nnc(NC(=O)CSc2nnc(-c3ccoc3C)n2CC(C)C)s1
99	.	0.3	COc1cc(C2C(C#N)=C(N)Oc3n[nH]c(-c4ccccn4)c32)cc(OC)c1OC (stereo unspecified)
100	.	-0.3	Cc1cccc(Cn2c(N(C)CCO)nc3c2c(=O)[nH]c(=O)n3C)c1

The list goes on; the last 2 above are carried over.
#	VCAM-1 rise	26S disassembly	SMILES
99	.	0.3	COc1cc(C2C(C#N)=C(N)Oc3n[nH]c(-c4ccccn4)c32)cc(OC)c1OC (stereo unspecified)
100	.	-0.3	Cc1cccc(Cn2c(N(C)CCO)nc3c2c(=O)[nH]c(=O)n3C)c1
101	.	-6.4	COC(=O)CNS(=O)(=O)c1ccc(Cc2ccc(S(=O)(=O)NCC(=O)OC)cc2)cc1
102	.	1.5	Cc1cccc2nc(Cn3c(=O)n(CCC(=O)NCc4ccco4)c(=O)c4sccc43)cc(=O)n12
103	.	-0.7	CN1CCN(CCCNC(=O)c2cc3c(=O)oc4ccccc4c3s2)CC1
104	.	6.0	CCOC(=O)N1CCN(S(=O)(=O)c2cc(Br)cc3c2N(C(=O)CC)CC3)CC1
105	i	0.1	COc1ccc(CCNC(=O)c2cc(C(C)C)on2)cc1OC
106	.	-0.2	O=C(CCNS(=O)(=O)c1cccc2nsnc12)N1CCc2ccccc21
107	.	1.3	Cc1ccccc1-c1nc(CS(=O)(=O)CC(=O)NCCCN2CCCC2)c(C)o1
108	i	-0.4	Cn1c(=O)c2c(nc(SCC(=O)O)n2Cc2cccc(C(F)(F)F)c2)n(C)c1=O
109	.	1.4	CC(C)NC(=O)C(C)n1cccc1C(=O)c1ccccc1 (stereo unspecified)
110	.	-2.3	COc1ccc(C2C(C(=O)NC(C)C)c3ccccc3C(=O)N2C)cc1OC (stereo unspecified)

Screening data (PubChem BioAssay)

Only part of the results is shown, so the mix of outcomes need not match the whole.
